VDR inhibitor: inhibitors of human vitamin D receptor; Potency, µM, for the others: max response, negative = inhibition, usual class: inhibitors; P11473; VDR-SRC2-3 peptide fluorescence polarization, 2 h; AID 504847; actives 0.93% (n = 400,000); active means well fitted inhibition curve with a large enough effect; inconclusive means small, poorly fitted or top-dose-only effect, or another doubt; inactive means no such curve, though single readings can be large or run the other way; further: series mostly up to about 120 µM
Target sequence (P11473 whole entry, looked up): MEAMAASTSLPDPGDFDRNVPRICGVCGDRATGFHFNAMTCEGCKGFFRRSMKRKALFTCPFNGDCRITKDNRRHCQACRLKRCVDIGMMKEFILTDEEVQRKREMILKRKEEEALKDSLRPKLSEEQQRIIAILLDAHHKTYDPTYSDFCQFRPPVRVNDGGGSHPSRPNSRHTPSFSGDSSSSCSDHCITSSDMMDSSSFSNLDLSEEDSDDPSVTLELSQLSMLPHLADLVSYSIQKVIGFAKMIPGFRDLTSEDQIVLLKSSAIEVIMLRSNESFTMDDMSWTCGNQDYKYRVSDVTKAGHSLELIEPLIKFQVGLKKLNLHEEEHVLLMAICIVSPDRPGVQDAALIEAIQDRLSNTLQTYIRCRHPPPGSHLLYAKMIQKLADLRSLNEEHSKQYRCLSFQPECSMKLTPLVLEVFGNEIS
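Signal is fluorescence polarization, reporting how far test compounds block the interaction of VDR with the SRC2-3 coregulator peptide after a 2 h room-temperature incubation.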
* = called active by the depositor; ? = inconclusive; [ ] = remark or other dose. On the % scale 0 is the no-effect control and ±100 the full control effect; potency means the concentration at half of the fitted maximal effect.

SMILES	VDR inhibitor
Cc1cccc(-c2noc(CCCC(=O)NCC3CCCO3)n2)c1 (centres undefined)	-16%
CCn1ccc2cc(S(=O)(=O)N3CCC(C(=O)NCCOC)CC3)ccc21	4%
O=C(Cc1ccccc1)N/N=C/c1cccn1-c1ccc([N+](=O)[O-])cc1	-15%
CC[C@H](C)NC(=O)CCCc1nnc2n(CCC(C)C)c(=O)c3sccc3n12	6%
COc1ccc(C2CC(c3cc(OC)ccc3OC)n3nnnc3N2)cc1 (centres undefined)	-12%
COc1ccc(OC)c(S(=O)(=O)N2CCC(C(=O)NCCC3=CCCCC3)CC2)c1	18%
CCOC(=O)Cc1csc(NC(=O)/C=C/c2ccc(Br)o2)n1	-6%
CCOc1cc(C(=O)NCCCNC(=O)c2cc(OCC)c(OCC)c(OCC)c2)cc(OCC)c1OCC	2%
CC(=O)Nc1ccc(NS(=O)(=O)c2c(C(=O)N3CCCCCC3)c(C)n(C)c2C)cc1	1%
COc1ccc2nc(N3CCCC(C(=O)NCCc4ccc(OC)c(OC)c4)C3)sc2c1 (centres undefined)	-6%
C=CCN(C(=O)CCC(=O)Nc1cc(C)on1)C(C(=O)NC1CCCC1)c1cccnc1 (centres undefined)	15%
COc1ccc(S(=O)(=O)N(CC(=O)NCC2CCCO2)c2ccc(F)cc2)cc1OC (centres undefined)	11%
CCOc1ccccc1NC(=O)NCCc1c[nH]c2ccccc12	4%
CCN(CC(=O)Nc1ccccc1C(F)(F)F)C(=O)CCS(=O)(=O)c1ccc(Cl)cc1	8%
O=C(Nc1cccc2cccnc12)c1cccc(Cl)c1	5%
CCCOc1cc(NCc2ccccc2)c2ncn(C(C)C)c2c1	-11%
COc1c(Br)cc(Br)cc1/C=N/n1c(C)nnc1C	?
Cc1ccc(-c2csc3ncn(CC#N)c(=O)c23)cc1	4%
COC1=CC(=O)C(O)=C(CCCCCCC/C=C/CCCCCCCC2=C(O)C(=O)C=C(OC)C2=O)C1=O	45µM*
CCOc1ccc(/C=N/OCC(=O)Nc2cc(S(=O)(=O)N3CCOCC3)ccc2OC)cc1	-5%
COc1cccc(N2CCN(C(=O)c3ccc(CS(=O)Cc4ccc(Cl)cc4)o3)CC2)c1 (centres undefined)	4%
Cc1ccc(NC(=O)NCC(c2cccnc2)N2CCOCC2)cc1 (centres undefined)	8%
COc1ccc(N(C(=O)Cn2nnc(-c3ccc(Cl)cc3)n2)C(C(=O)NCC2CCCO2)c2ccc(C)cc2)cc1 (centres undefined)	-4%
O=C(CCCc1c[nH]c2ccccc12)NCc1ccc2c(c1)OCO2	-10%
O=C(NCc1ccco1)c1cc2ccc(O)cc2oc1=O	-5%
CSCc1ccc(C(=O)N2CCCC(Nc3ccc4c(c3)OCCO4)C2)o1 (centres undefined)	-2%
COc1ccc(NS(=O)(=O)c2cc(NC(=O)CC(=O)c3ccc([N+](=O)[O-])cc3)ccc2C)cc1	6%
COc1ccc(CNC(=O)CCc2c(C)nn(-c3ccc(N4CCCCC4)nn3)c2C)c(OC)c1	9%
CN(c1ccc(OCC(=O)N2CCCCC2)cc1)S(=O)(=O)c1cccs1	-2%
CCOC(=O)c1ccc(N2C(=O)CC(N(C)CCc3ccc(OC)c(OC)c3)C2=O)cc1 (centres undefined)	8%

Records listed so far printed as active in VDR inhibitor:
SMILES	VDR inhibitor
COC1=CC(=O)C(O)=C(CCCCCCC/C=C/CCCCCCCC2=C(O)C(=O)C=C(OC)C2=O)C1=O	45µM*

(further entries)
SMILES	VDR inhibitor
O=C(NCC1CCCO1)c1nn2c(C(F)(F)F)cc(-c3cc(Br)cs3)nc2c1Br (centres undefined)	5%
CC(=O)c1cccc(NC(=O)C2CCCN(S(C)(=O)=O)C2)c1 (centres undefined)	7%
N#Cc1ccc(C23CC4CC(CC(C4)C2)C3)[nH]c1=O	11%
COc1ccc(CNC(=O)CCCN2C(=O)NC3(CCCC3)C2=O)cc1	-5%
O=C(N/N=C/c1ccccn1)c1cc([N+](=O)[O-])cc([N+](=O)[O-])c1	-14%
COc1cc(NC(=O)COC(=O)CSc2ccc3ccccc3c2)c(C)cc1[N+](=O)[O-]	-12%
CCc1c(C)sc(NC(=O)OC)c1C(=O)N1CCOCC1	2%
CCOc1ccc(NC(=O)c2cc(S(=O)(=O)N3CCc4ccccc43)ccc2F)cc1	-3%
O=C(CNC(=O)c1cccc(Br)c1)N/N=C/c1cc(Br)cc(Br)c1O	-3%
Cc1ccc(NC(=O)COC(=O)/C=C/c2ccccc2)cc1S(=O)(=O)N1CCOCC1	-8%
Cc1c(/C=N\NC(=O)c2csc3ccccc23)cnn1C	8%
COc1ccc(/C=C2\SC(=NCc3ccccc3)NC2=O)cc1	-25%
O=C(NCCC1=CCCCC1)c1ccc2c(c1)N(Cc1ccccc1F)C(=O)c1ccccc1S2=O (centres undefined)	5%
COc1ccccc1N1CCN(C(=O)c2sc3nc(-c4ccc(F)cc4)cn3c2C)CC1	-13%
Cc1ccc(Nc2nc3ccccc3o2)cc1F	?
C=CCN1C(=O)CN=C1NCc1ccccc1	8%
O=C(c1cc2cc(Br)ccc2o1)N1CCCC1	?
CCCn1c(NC(=O)c2ccccc2)nc2ccccc21	11%
CCCNC(=O)c1c(O)c2cccc3c2n(c1=O)CCC3	32%[activator]
CCc1cccc(NC(=O)C2CCN(C(=O)c3cnn(-c4ccccc4)c3-n3cccc3)CC2)c1	8%
Cc1ccc2[nH]cc(CCNC(=O)Nc3ccccc3)c2c1	-5%
C/C(=N\NC(=O)COc1cccc(Cl)c1)c1ccc2c(c1)OCCO2	-8%
O=C(Nn1c(SCc2ccc([N+](=O)[O-])cc2)nc2ccccc2c1=O)c1ccc(F)cc1	12%
Cc1ccc(CNC(=O)CCS(=O)(=O)Cc2ccc(C)cc2)cc1	-10%
Cc1c(C)c2c(OCC(=O)N3CCC(C(=O)NCC(C)C)CC3)cc3c(c2oc1=O)CCC(C)(C)O3	-2%
Cn1cc(SCC(=O)Nc2nc3ccccc3s2)c2ccccc21	3%
COC(=O)N1CCC2(CCN(C(=O)Nc3cccc(C#N)c3)CC2)CC1	-10%
NS(=O)(=O)c1ccc(NC(=S)N2CCN(c3ccccc3)CC2)cc1	13%
O=C(COC(=O)c1cccc(O)c1)c1ccccc1	6%
O=C(CC1Sc2ccccc2NC1=O)NNC(=O)Nc1ccc(Cl)cc1 (centres undefined)	-12%

Of the compounds above, these have a nitro group on carbon.
SMILES	VDR inhibitor
O=C(Cc1ccccc1)N/N=C/c1cccn1-c1ccc([N+](=O)[O-])cc1	-15%
COc1ccc(NS(=O)(=O)c2cc(NC(=O)CC(=O)c3ccc([N+](=O)[O-])cc3)ccc2C)cc1	6%
O=C(N/N=C/c1ccccn1)c1cc([N+](=O)[O-])cc([N+](=O)[O-])c1	-14%
COc1cc(NC(=O)COC(=O)CSc2ccc3ccccc3c2)c(C)cc1[N+](=O)[O-]	-12%
O=C(Nn1c(SCc2ccc([N+](=O)[O-])cc2)nc2ccccc2c1=O)c1ccc(F)cc1	12%

(next part)
SMILES	VDR inhibitor
O=C(NNC(=O)c1ccccc1O)c1cc2ccccc2o1	-10%
COC(=O)CC1=C(C(=O)OC)C(c2cccc(OCC(N)=O)c2)C(C#N)=C(N)O1 (centres undefined)	-7%
Cc1ccc(-n2nc(C(=O)N3CCCCC3C)c(=O)n(C)c2=O)cc1 (centres undefined)	5%
O=C(CSc1nnc2ccccn12)c1ccc2c(c1)OCCO2	1%
O=C(Oc1ccc(NC(=O)c2cc3c(cc2Br)OCO3)cc1)c1ccccc1	-11%
Cc1ccc(C2=CSC3=NNC4(CCCCC4)NN23)cc1	-8%
Cc1ccc(NC(=O)N2CCC(c3nc4c(nnn4Cc4cccc(Cl)c4)c(=O)[nH]3)CC2)cc1	11%
CC(C)C(NS(=O)(=O)c1cccc2nsnc12)C(=O)N1CCn2c1nc1ccccc12 (centres undefined)	-7%
Nc1nc(Cl)nc2c1ncn2C1OC(CO)C(O)C1F (centres undefined)	0%
O=C(NCc1ccco1)c1cc2sccc2n1Cc1ccc(F)cc1	1%
COc1ccc(-c2nc3ccc(C(=O)NCc4ccc(C)cc4)cc3nc2-c2ccc(OC)cc2)cc1	16%
Cc1ccn(-c2n[nH]c(C)c2[N+](=O)[O-])n1	-12%
CCN1C(=O)C(=O)N(CC(=O)N(C)CC(=O)Nc2ccccc2C(F)(F)F)C1=O	-2%
Cc1cccc(CNc2ncnc3ccc(-c4cccc(NS(C)(=O)=O)c4)cc23)c1	-7%
COc1ccc(NS(=O)(=O)c2cc([N+](=O)[O-])ccc2N/N=C/c2c(C)[nH]c3ccccc23)cc1	11%
COc1ccc(C(CNC(=O)c2oc3ccc(Br)cc3c2C)N2CCCCC2)cc1 (centres undefined)	6%
CCCCSc1nc2c([nH]1)c(=S)n(C)c(=O)n2C	-12%
COc1cc(/C=C(/C#N)c2nc3ccccc3[nH]2)ccc1OCc1ccc(C(=O)O)o1	-5%
CC1CCN(S(=O)(=O)c2ccc3c(ccn3CC(=O)NCc3ccc(N(C)C)cc3)c2)CC1	16%
O=C(NCc1cn2ccccc2n1)c1ccco1	-12%
COc1ccccc1/C=C/C=N/N1CCN(Cc2ccccc2)CC1	10%
CCN1C(=O)C(CC(=O)Nc2c(C)cccc2C)Nc2cc(S(=O)(=O)N(C)C)ccc21 (centres undefined)	-11%
COC(=O)c1cccc(NC(=O)c2ccc(S(=O)(=O)N3CCN(C)CC3)cc2)c1	-14%
CCCOc1ccc(-c2c(C(=O)N/N=C(\C)c3ccncc3)nnn2-c2nonc2N)cc1	-9%
CCOC(=O)C1(CCCc2ccccc2)CCN(C(=O)CN2C(=O)CSC2=O)CC1	-11%
N#Cc1cc(C#N)c(SCC(=O)NCC2CCCO2)nc1N (centres undefined)	13%
Cc1cccc(NC(=S)NNC(=O)c2ccccc2OC(F)F)c1	-4%
FC(F)(F)c1cccc(-c2nnc(-c3ccccc3)c(N3CCOCC3)n2)c1	15%
Cc1ccccc1OCCCn1c(CO)nc2ccccc21	-3%
Cc1c(NC(=O)c2ccc(OC(C)C)cc2)cccc1-c1nc2ncccc2o1	-8%

Some of the entries so far, with values ahead of the structure.
| VDR inhibitor | Structure |
| --- | --- |
| -12% | Cc1ccn(-c2n[nH]c(C)c2[N+](=O)[O-])n1 |
| -2% | CCN1C(=O)C(=O)N(CC(=O)N(C)CC(=O)Nc2ccccc2C(F)(F)F)C1=O |

Next results follow.
SMILES	VDR inhibitor
CN(C)c1ccc(C(=O)Nc2ccc(CN3CCS(=O)(=O)CC3)cc2)cc1	-9%
C[C@H](CO)N1C[C@H](C)[C@@H](CN(C)CC2CC2)Oc2c(NC(=O)Cc3ccccc3)cccc2C1=O	4%
CCOc1ccc(CCNC(=O)CCc2cn(Cc3ccccc3F)c3ccccc23)cc1OCC	5%
Cn1c(=O)c([N+](=O)[O-])c(NCc2ccccc2Cl)c2ccccc21	-9%
O=C(Nc1ccc(S(=O)(=O)C(F)F)cc1)c1cccc(S(=O)(=O)N2CCOCC2)c1	-6%
Cc1ccc2c(c1)C(=C(C#N)C#N)C(=O)N2CCN1CCOCC1	79µM*
CN1c2ccccc2N(C)C1(C)c1cccc2ccccc12	-27%
Cc1noc(C)c1COC(=O)COc1ccc(C#N)cc1	14%
Cn1c(SCC(=O)N2CC(=O)Nc3ccccc32)nc2ccccc2c1=O	5%
COc1ccc(CCNC(=O)c2ccncc2)cc1OC	-5%
CCc1nnc(NC(=O)C2COc3ccccc3O2)s1 (centres undefined)	-4%
O=C(NC(=O)c1cccc(Cl)c1)OC[C@@H]1CCCN2CCCCC12 (some centres undefined)	-13%
CC(C)(C(=O)c1ccccc1)/[N+]([O-])=C/c1ccccc1F	-8%
CCC1CCCCN1S(=O)(=O)c1ccc(S(=O)(=O)N(Cc2ccccn2)CC2CCCO2)cc1 (centres undefined)	-28%
CCOC(=O)C(C)Sc1nc(-c2ccccc2)ccc1C#N (centres undefined)	-2%
CN1/C(=C\C=C(/C#N)C(=O)Nc2ccccc2F)C(C)(C)c2ccccc21	-7%
CC(C)c1ccccc1NC(=S)N1CCN(Cc2ccc3c(c2)OCO3)CC1	5%
COCCN(C(=O)CCC(=O)Nc1ccccn1)C(C(=O)NCCC(C)C)c1ccc(OC)cc1 (centres undefined)	-1%
O=C(c1ccc(N2C(=O)C3C4CC(C(Br)C4Br)C3C2=O)cc1)N1CCCCC1 (centres undefined)	-14%
O=C(CSc1nc(-c2ccco2)cc(C(F)(F)F)n1)NCc1cccs1	2%
O=C(NCc1cccnc1)c1ccc(COc2ccc(Cl)cc2Cl)o1	-4%
CCOC(=O)N1CCN(c2cc(N)c([N+](=O)[O-])cc2F)CC1	11%
O=C1Cc2ccccc2C(=O)N1OCc1ccc(Cl)cc1Cl	0%
Cc1ccc(C(=O)NN2C(=O)/C(=C/c3cn(C)c4ccccc34)SC2=S)cc1	7%
COC(=O)C1C(c2ccc(OC)cc2)C(C(=O)OC)S(=O)(=O)C(CCN2CCCCC2)S1(=O)=O (centres undefined)	1%
CCC(C)(C)n1nnnc1CN1CCN(c2nc3cc(OC)ccc3cc2C#N)CC1	-4%
COc1ccc(Nc2c3c(nc4c(-c5ccccc5)c(C)nn24)CCC3)cc1	8%
COc1ccccc1C1=CC(=O)C[C@H](c2ccc3c(c2)OCO3)C1	-14%
CC1CCCCN1C(=O)NC12CC3CC(CC(C3)C1)C2 (centres undefined)	5%
Cc1ccccc1NC(=O)c1ccc(S(=O)(=O)C(F)F)cc1	-16%
Cc1nn(C2CCS(=O)(=O)C2)c(C)c1C=O (centres undefined)	?

High-throughput results from PubChem.

A portion of the library, so the mix of outcomes need not match the whole.
